HCMV NEC inh: disrupts HCMV UL50-UL53 complex binding | HTRF UL50-UL53 interaction, normalized percent inhibition | inhibition, % (test concentration not listed) | actives 0.15% (n = 190,000);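 active = both replicates at 50% or more, plus weaker picks with an unusually low signal ratio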;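 note: stock transfer was 100 nL into about 20 µL; 0% = negative control wells and 100% = wells with untagged competitor protein; inactives centre near -12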
GIV Gai3 FP: GIV-Galpha-i interaction inhibition; P08753; Galpha-i3/FITC-GIV peptide fluorescence polarization, 90 min; hits give low values; scaled: aluminum fluoride 0%, vehicle 100%; percent of control (FP), % (test concentration not listed); actives 0.42% (n = 210,000);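 active = replicate mean at 85% of control or lower, very high polarization wells dropped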;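 note: wells of about 15 µL received 100 nL stock; the first replicate is given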
Target sequence (P08753 whole entry, looked up): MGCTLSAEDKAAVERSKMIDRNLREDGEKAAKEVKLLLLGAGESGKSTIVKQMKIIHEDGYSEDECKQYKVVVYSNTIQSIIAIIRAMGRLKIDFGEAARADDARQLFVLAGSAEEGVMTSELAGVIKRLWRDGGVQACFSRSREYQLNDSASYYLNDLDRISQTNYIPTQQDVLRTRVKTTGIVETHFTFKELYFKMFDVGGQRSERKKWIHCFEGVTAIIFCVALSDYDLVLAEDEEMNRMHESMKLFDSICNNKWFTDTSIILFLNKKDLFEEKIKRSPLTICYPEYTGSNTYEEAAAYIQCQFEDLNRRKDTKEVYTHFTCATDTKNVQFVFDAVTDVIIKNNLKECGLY
Sa growth inh: inhibitors of Staphylococcus aureus growth at 42 °C; S. aureus RN4220 growth, OD600, 20 h; hits give low values; relative growth, % (concentration not given with the values); actives 0.53% (n = 170,000);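 active = growth at 42 °C up to 50% and 20 or more points under that at 30 °C, or under 10% at both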;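 note: 300 nL library stock went into each well; scaled to the means of positive and negative controls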
Sa growth inh second temp: further read-out of Sa growth inh, marked with its call; relative growth, %; measured here: growth at 30 °C;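 optical density after 20 h as mean of two plates; 100% = untreated growth and lower means inhibition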
* hit, by the source's call; & = joins results of further samples.

What do the screens show for `c1ccc2c(N3CCCCC3)nc(N3CCCCC3)nc2c1`?
GIV Gai3 FP: 96; Sa growth inh: 92; Sa growth inh second temp: 89

How did O=C1CCC/C(=N\Nc2ccccc2)C1 do in these assays?
HCMV NEC inh: -52; GIV Gai3 FP: 104; Sa growth inh: 88; Sa growth inh second temp: 63

Results for Cc1nn(Cc2ccccc2)c(Cl)c1C(=O)OCc1nnc(-c2ccc(Cl)cc2)o1 ?
HCMV NEC inh: -14; Sa growth inh: 82; Sa growth inh second temp: 88

Results for Cc1c2cnn(-c3ccccc3)c(=O)c2c(C)n1CCCC(=O)NCC1CCCO1 (stereo unspecified) ?
HCMV NEC inh: 1; GIV Gai3 FP: 106; Sa growth inh: 129; Sa growth inh second temp: 92

Results for c1ccc2c(c1)CCN(CCCNc1nc3ccccc3n3nnnc13)C2 ?
GIV Gai3 FP: 135; Sa growth inh: 105; Sa growth inh second temp: 66

Results for Cc1cccc(N2CCN(C(c3ccccc3)c3nnc(-c4ccccc4F)o3)CC2)c1C (stereo unspecified) ?
HCMV NEC inh: -12; GIV Gai3 FP: 104; Sa growth inh: 108; Sa growth inh second temp: 88

How did CNc1ccccc1-n1ccc(-c2ccccc2)n1 do in these assays?
HCMV NEC inh: -13; GIV Gai3 FP: 101; Sa growth inh: 92; Sa growth inh second temp: 99

Results for COc1ccc2occ(CC(=O)Nc3ccc(S(=O)(=O)Nc4nc(C)cc(C)n4)cc3)c2c1 ?
HCMV NEC inh: 8; GIV Gai3 FP: 107; Sa growth inh: 99; Sa growth inh second temp: 78

How did Cn1nc(C(=O)Nc2ccc(Br)cc2F)cc1C(F)(F)F do in these assays?
HCMV NEC inh: -17; GIV Gai3 FP: 100

How did OC(CN1CCCCC1)C(F)(F)F (stereo unspecified) do in these assays?
HCMV NEC inh: -8; GIV Gai3 FP: 97

What do the screens show for `CC(Oc1ccc2ccccc2c1I)C(=O)O` (stereo unspecified)?
HCMV NEC inh: -44; GIV Gai3 FP: 98; Sa growth inh: 128; Sa growth inh second temp: 107

Results for CC(=O)OC(C(=O)Nc1cccc(C)n1)c1ccccc1 (stereo unspecified) ?
GIV Gai3 FP: 103; Sa growth inh: 94; Sa growth inh second temp: 86

Results for COC(=O)/C=C1/N/C(=N/c2nc3ccccc3s2)NC1=O ?
HCMV NEC inh: -7; GIV Gai3 FP: 96; Sa growth inh: 109; Sa growth inh second temp: 59

What do the screens show for `O=C(CCCN1C(=O)C(c2ccccc2)Oc2cccnc21)NC1CCN(Cc2ccccc2)CC1` (stereo unspecified)?
HCMV NEC inh: -23; GIV Gai3 FP: 106; Sa growth inh: 102; Sa growth inh second temp: 90

How did CC1CN(C(=O)Cn2cc(C(F)(F)F)cc(Cl)c2=O)CC(C)O1 (stereo unspecified) do in these assays?
HCMV NEC inh: 0; Sa growth inh: 112; Sa growth inh second temp: 98

How did Cc1cc(C(=O)OCC(=O)NCc2ccco2)c(C)n1-c1ccc(F)cc1 do in these assays?
HCMV NEC inh: -30; Sa growth inh: 124; Sa growth inh second temp: 91

Results for CCCNc1ccc(-c2nc(-c3ccco3)no2)cc1[N+](=O)[O-] ?
HCMV NEC inh: -12; GIV Gai3 FP: 96; Sa growth inh: 99; Sa growth inh second temp: 91

How did CCOC(NC(=O)Nc1ccc(Br)cc1)(C(F)(F)F)C(F)(F)F do in these assays?
HCMV NEC inh: -12; GIV Gai3 FP: 106; Sa growth inh: -0.7*; Sa growth inh second temp: -0.7*

What do the screens show for `N#Cc1ccccc1NS(=O)(=O)c1ccc(N2CCCCS2(=O)=O)cc1`?
GIV Gai3 FP: 96; Sa growth inh: 93; Sa growth inh second temp: 70

How did COc1ccc(OC)c(NC(=O)Cn2ccn(-c3ccc(F)cc3)c(=O)c2=O)c1 do in these assays?
HCMV NEC inh: -25; GIV Gai3 FP: 100; Sa growth inh: 112; Sa growth inh second temp: 80

How did CCCNC(=O)CN1CCN(C(=O)c2ccc(N3CCNCC3)c(NS(C)(=O)=O)c2)CC1 do in these assays?
HCMV NEC inh: -15; GIV Gai3 FP: 98

Results for CC(=O)N1c2ccc(S(=O)(=O)N3CCOCC3)cc2CC1C(=O)NCCN1CCCC1 (stereo unspecified) ?
HCMV NEC inh: -5; GIV Gai3 FP: 98

Results for Cc1cccc(CNC(=O)C(=O)Nc2ccccc2C)c1 ?
HCMV NEC inh: -20; GIV Gai3 FP: 103; Sa growth inh: 96; Sa growth inh second temp: 87

Results for OC(CN1CCCCC1)CN1c2ccccc2Sc2ccccc21 (stereo unspecified) ?
GIV Gai3 FP: 108; Sa growth inh: 98; Sa growth inh second temp: 87

What do the screens show for `C=CCN(CC=C)C(=O)C[n+]1cccc(C(N)=O)c1`?
GIV Gai3 FP: 100; Sa growth inh: 113; Sa growth inh second temp: 94

How did CCOC(=O)C1C(=O)C=C(Nc2ccccc2F)CC1c1ccccc1 (stereo unspecified) do in these assays?
HCMV NEC inh: -1; GIV Gai3 FP: 102; Sa growth inh: 91; Sa growth inh second temp: 74

What do the screens show for `COc1cccc(OC)c1C(=O)NCC#N`?
HCMV NEC inh: -8; GIV Gai3 FP: 102; Sa growth inh: 91; Sa growth inh second temp: 104

Results for CCc1ccc(Cn2nnc(C(=O)Nc3ccc(C)cc3)c2N)cc1 ?
HCMV NEC inh: 24; GIV Gai3 FP: 108; Sa growth inh: 109; Sa growth inh second temp: 99

Results for COc1ccccc1CNC(=O)CCc1c(C)nc2c(c(C)nn2-c2ccc(C)c(C)c2)c1C ?
HCMV NEC inh: -4; GIV Gai3 FP: 101; Sa growth inh: 88; Sa growth inh second temp: 95

Results for CCSc1nnc2ccc(-c3ccncc3)nn12 ?
HCMV NEC inh: -137; GIV Gai3 FP: 100; Sa growth inh: 82; Sa growth inh second temp: 83

How did C=CCN1C(=O)C(=O)/C(=C(\O)c2ccccc2)C1c1ccccc1 (stereo unspecified) do in these assays?
HCMV NEC inh: 25; GIV Gai3 FP: 109; Sa growth inh: 93; Sa growth inh second temp: 88

Results for Cc1ccc(OC(=O)c2ccno2)cc1 ?
HCMV NEC inh: -3; GIV Gai3 FP: 105; Sa growth inh: 104; Sa growth inh second temp: 109

How did CCOC(=O)c1c(C)oc2nc(C)nc(NCCc3ccc(C)cc3)c12 do in these assays?
GIV Gai3 FP: 101; Sa growth inh: 106; Sa growth inh second temp: 96

How did O=C1CCC(=O)N1c1c(F)c(F)nc(N2CCCCC2)c1F do in these assays?
GIV Gai3 FP: 102; Sa growth inh: 81; Sa growth inh second temp: 55

What do the screens show for `Cc1ccccc1NC(=O)c1c(NC(=O)Cc2ccccc2)sc2c1CCC2`?
HCMV NEC inh: -44; GIV Gai3 FP: 101; Sa growth inh: 93; Sa growth inh second temp: 88

Results for O=C(COC(=O)c1ccc(F)c(S(=O)(=O)N2CCCCC2)c1)NC1CC1 ?
HCMV NEC inh: -2; Sa growth inh: 95; Sa growth inh second temp: 96

Results for O=C(COc1ccc2ccccc2c1Br)NC1CCCCC1 ?
HCMV NEC inh: -18; Sa growth inh: 90; Sa growth inh second temp: 87

What do the screens show for `CCOC(=O)N1CCN(S(=O)(=O)c2ccc(C)c(C)c2)CC1`?
HCMV NEC inh: -6; GIV Gai3 FP: 104; Sa growth inh: 101; Sa growth inh second temp: 97

How did CCc1ccc(CNC(=O)c2cc3cc4ccc(OC)cc4nc3o2)cc1 do in these assays?
HCMV NEC inh: -12; GIV Gai3 FP: 105; Sa growth inh: 106; Sa growth inh second temp: 96

How did O=C1CSc2ccc(C(=O)OCCCn3c(=O)[nH]c4ccccc43)cc2N1 do in these assays?
HCMV NEC inh: -19; Sa growth inh: 102; Sa growth inh second temp: 86

What do the screens show for `O=C(NCC1CCCCC1)NC1CCCN(c2cnccn2)C1` (stereo unspecified)?
HCMV NEC inh: 7; GIV Gai3 FP: 97; Sa growth inh: 105; Sa growth inh second temp: 98

Results for CCC(C)NC(=O)CN1C(=O)CCn2nc(C)cc21 (stereo unspecified) ?
HCMV NEC inh: 0; GIV Gai3 FP: 102

Results for COc1ccc(-n2nnnc2C2CCN(S(=O)(=O)c3ccc(F)cc3Cl)CC2)cc1 ?
HCMV NEC inh: -13&-18; GIV Gai3 FP: 99&105; Sa growth inh: 112; Sa growth inh second temp: 93

How did COc1ccc(CCNC(=O)c2ccc(/C=C3\Oc4ccccc4NC3=O)cc2)cc1OC do in these assays?
GIV Gai3 FP: 100; Sa growth inh: 111; Sa growth inh second temp: 59

What do the screens show for `CCCCn1c2ccc(F)cc2c2nnc(SCCN3CCCCC3)nc21`?
HCMV NEC inh: -67; GIV Gai3 FP: 111; Sa growth inh: 101; Sa growth inh second temp: 101

Results for COC(=O)c1cc(NC(=O)c2cnc(SC)nc2-c2ccccc2)cc(C(=O)OC)c1 ?
GIV Gai3 FP: 106; Sa growth inh: 104; Sa growth inh second temp: 82

How did Cc1ccc(Cn2cccc2CNS(=O)(=O)c2ccc(C)cc2C)cc1 do in these assays?
HCMV NEC inh: -2; GIV Gai3 FP: 106

What do the screens show for `CC(Nc1nnnn1-c1ccccc1)c1ccccc1` (stereo unspecified)?
HCMV NEC inh: -3; Sa growth inh: 98; Sa growth inh second temp: 99

What do the screens show for `CC(C)c1ccc(NC(=O)C(NC(=O)Cc2cccs2)c2ccccc2)cc1` (stereo unspecified)?
GIV Gai3 FP: 98; Sa growth inh: 97; Sa growth inh second temp: 85

What do the screens show for `CCN(CC)C(=O)Oc1nnc(SC(C)C)n1-c1ccc(Cl)cc1`?
HCMV NEC inh: -3; GIV Gai3 FP: 106; Sa growth inh: 101; Sa growth inh second temp: 104

How did CCn1cc(-c2nc(-c3cc(OC)cc(OC)c3)no2)c(=O)c2cc(F)c(N3CCOCC3)cc21 do in these assays?
HCMV NEC inh: -36; GIV Gai3 FP: 100

Results for Cc1cccc(OCCSc2nc3ccc(NC(=O)COc4ccccc4C)cc3s2)c1 ?
HCMV NEC inh: 3; GIV Gai3 FP: 95; Sa growth inh: 96; Sa growth inh second temp: 90

How did CC(=C1C(=O)NC(=O)NC1=O)c1ccc(N)cc1 do in these assays?
HCMV NEC inh: -8; Sa growth inh: 90; Sa growth inh second temp: 83

What do the screens show for `CN(C)c1ccc(CC2C(=O)Nc3ccccc32)cc1` (stereo unspecified)?
HCMV NEC inh: -32; GIV Gai3 FP: 107

Results for CC(C)c1cccc(C(C)C)c1NC(=O)CSc1ncccn1 ?
HCMV NEC inh: 8; Sa growth inh: 111; Sa growth inh second temp: 100

What do the screens show for `CNC(=S)NCc1ccc2c(c1)cc(C)n2C`?
HCMV NEC inh: 6; GIV Gai3 FP: 107; Sa growth inh: 94; Sa growth inh second temp: 98

How did O=C(NCC1CCCO1)C1CCN(c2nnc(-n3cccc3)s2)CC1 (stereo unspecified) do in these assays?
HCMV NEC inh: -18; GIV Gai3 FP: 103; Sa growth inh: 85; Sa growth inh second temp: 82

Results for NS(=O)(=O)c1ccc(NC(=O)CN2CCCC2c2ccc3c(c2)OCCO3)cc1 (stereo unspecified) ?
HCMV NEC inh: -8; Sa growth inh: 78; Sa growth inh second temp: 92

How did Cc1nn(C)c(C)c1/C=C/C(=O)Nc1nc2c(s1)CCCC2 do in these assays?
HCMV NEC inh: 4; Sa growth inh: 100; Sa growth inh second temp: 92

How did CCC12CN3CC(C)(CN(C1)C3c1c(C)[nH]c3ccccc13)C2=O (stereo unspecified) do in these assays?
HCMV NEC inh: -21; GIV Gai3 FP: 97; Sa growth inh: 95; Sa growth inh second temp: 91

Results for CN1c2ccccc2-c2nc3ccccc3n2C1c1ccccn1 (stereo unspecified) ?
HCMV NEC inh: -5; GIV Gai3 FP: 99; Sa growth inh: 93; Sa growth inh second temp: 88

Results for CN(C)CC1CCc2c(c3ccccc3n2C)C1=O (stereo unspecified) ?
HCMV NEC inh: -4; GIV Gai3 FP: 109; Sa growth inh: 102; Sa growth inh second temp: 83

Results for O=C1CSC(c2cn(-c3ccccc3)nc2-c2ccccc2)N1Cc1cccnc1 (stereo unspecified) ?
HCMV NEC inh: -11; GIV Gai3 FP: 100&102

An excerpt from above in order of count of non-hydrogen atoms, ascending:
Results for CCSc1nnc2ccc(-c3ccncc3)nn12 ?
HCMV NEC inh: -137; GIV Gai3 FP: 100; Sa growth inh: 82; Sa growth inh second temp: 83

Results for Cc1cccc(CNC(=O)C(=O)Nc2ccccc2C)c1 ?
HCMV NEC inh: -20; GIV Gai3 FP: 103; Sa growth inh: 96; Sa growth inh second temp: 87

Results for O=C(COc1ccc2ccccc2c1Br)NC1CCCCC1 ?
HCMV NEC inh: -18; Sa growth inh: 90; Sa growth inh second temp: 87

How did CC1CN(C(=O)Cn2cc(C(F)(F)F)cc(Cl)c2=O)CC(C)O1 (stereo unspecified) do in these assays?
HCMV NEC inh: 0; Sa growth inh: 112; Sa growth inh second temp: 98

How did CCC12CN3CC(C)(CN(C1)C3c1c(C)[nH]c3ccccc13)C2=O (stereo unspecified) do in these assays?
HCMV NEC inh: -21; GIV Gai3 FP: 97; Sa growth inh: 95; Sa growth inh second temp: 91

Results for CCc1ccc(Cn2nnc(C(=O)Nc3ccc(C)cc3)c2N)cc1 ?
HCMV NEC inh: 24; GIV Gai3 FP: 108; Sa growth inh: 109; Sa growth inh second temp: 99

How did CCOC(=O)C1C(=O)C=C(Nc2ccccc2F)CC1c1ccccc1 (stereo unspecified) do in these assays?
HCMV NEC inh: -1; GIV Gai3 FP: 102; Sa growth inh: 91; Sa growth inh second temp: 74

What do the screens show for `CCCCn1c2ccc(F)cc2c2nnc(SCCN3CCCCC3)nc21`?
HCMV NEC inh: -67; GIV Gai3 FP: 111; Sa growth inh: 101; Sa growth inh second temp: 101
